Compound activity deposited in PubChem by National Center for Advancing Translational Sciences (NCATS).
TsaE inh: YjeE (TsaE) inhibition, E. coli; purified YjeE, fluorescence polarisation of a bound ADP probe; 71,000 tested, 0.05% active; Potency, µM; active = well fitted falling curve; inconclusive = weaker or top-dose-only fall, or a rising curve; inactive = flat or poorly fitted curve;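 note: top concentration of the series not given in the record; excess ADP was the control for the full effect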
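Fluorescence polarization of a BODIPY Texas Red–ADP probe (2 uM) bound to purified YjeE (10 uM) was read after 15 min room-temperature incubation with compounds. Loss of polarization marks inhibitors; ADP serves as titrated control.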
PK Bst: pyruvate kinase (B. stearothermophilus) modulation; partly purified Bacillus stearothermophilus pyruvate kinase, luminescence ATP production; ribose 5-phosphate activator present at AC10; Potency, µM; 51,000 tested, 1.2% active; AID 361; in the data active means potency below about 11 µM; inconclusive means mostly about 12 µM to 25 µM; inactive means weaker than that;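 the screen sought inhibitors and activators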;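 note: potency is the fitted concentration of half-maximal effect; scaled between full activation by ribose 5 phosphate and full inhibition by luteolin; about four in five hits inhibit and the cells do not say which; series up to 57 µM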
Starred values were filed as active, the others as inactive; i = inactive; ? = inconclusive; · = not tested or not shown. A portion of the library (hit frequency here may not be typical).

smiles | TsaE inh | PK Bst
COc1ccc(C2N(c3ccc(OC)cc3)C(=O)C3CCCN32)cc1 (stereo not drawn) | i | ·
COc1ccc(OC)c(C2=Nn3c(nnc3C3CCCCC3)SC2)c1 | · | >11
COc1cccc(-c2cc(C(=O)Nc3cc(OC)c(OC)c(OC)c3)no2)c1 | i | >57
CCOC(=O)N1CCN(S(=O)(=O)c2cccc3ccc(C)nc23)CC1 | i | ?
COC(=O)c1ccc(OCCn2cnc3ccccc3c2=O)cc1 | i | >57
COC(=O)c1ccc(CSc2nc3c(c(=O)n2-c2ccccc2)SCC3)o1 | i | ·
CN(C)C(=O)Nc1cnc2ccccc2c1 | i | ·
O=C(Cc1ccccc1)Nc1ccc(-c2nnc(-c3ccco3)o2)cc1 | i | >57
CCCCCOc1ccc(C2C(C(C)=O)=C(C)Nc3ncnn32)cc1OC (stereo not drawn) | i | >57
Cn1c(=O)n(C)c2cc(S(=O)(=O)NCc3ccco3)ccc21 | i | >57
COC(=O)c1sc(N2C(=O)C(O)=C(C(=O)c3ccc(C)o3)C2c2ccc(F)cc2)nc1C (stereo not drawn) | i | ·
O=C(c1ccc(Br)o1)N1CCN=C1SCc1cccnc1 | i | ·
CCN(CC)c1nc2n(c(=O)n1)CCO2 | i | >57
Cc1ccc(OCC(=O)N2CCCCC2)c(Br)c1 | i | >57
Cc1ccc([N+](=O)[O-])cc1N | i | ·
O=C(Nc1ccon1)c1cc(-c2ccccc2)nc2ccccc12 | i | >57
CCC(C)(C)n1nnnc1C(c1cc2cc(OC)ccc2[nH]c1=O)N1CCc2ccccc21 (stereo not drawn) | i | >57
CCOCCn1c(SCC)nc2c1c(=O)[nH]c(=O)n2C | i | >57
Cc1ccc(S(=O)(=O)c2cccc(S(=O)(=O)N3CCCC3)c2)cc1S(=O)(=O)N1CCCC1 | i | ·
Cc1cc(C)n2c(SCCN3C(=O)c4ccccc4C3=O)nnc2n1 | i | ·
COc1ccccc1-c1coc2cc(O)cc(O)c2c1=O | i | ·
Cc1ccc(Cl)c2c1NC(=O)C2(O)CC(=O)c1ccccc1O (stereo not drawn) | i | ?
Cc1sc(NC(=O)c2oc3ccccc3c2C)c(C#N)c1C | i | >57
Cc1ccc(-c2nn(C)c(=O)c3ccccc23)cc1S(=O)(=O)N1CCCC1 | i | ·
Cc1ccc(N(C(=O)Cn2nnc3ccccc32)C(C(=O)NCc2ccco2)c2ccc(C)o2)cc1 (stereo not drawn) | i | >57
CC1CCc2nn(CC(=O)NCCN3CCCCC3C)cc2C1 (stereo not drawn) | i | ·
CCCc1nnc(SCC(=O)Nc2ccc(OC)cc2)n1N | i | >57
c1ccc(-c2csc3ncn4nnnc4c23)cc1 | i | >57
O=C(Cc1ccccc1)Nc1nc2ccccc2[nH]1 | i | >57
N#Cc1c(NC(=O)CCCN2C(=O)c3ccccc3C2=O)oc(-c2ccccc2)c1-c1ccccc1 | i | ·
CC1CCCCC1NC(=O)CN1C(=O)NC(C)(c2ccc(OC(F)F)cc2)C1=O (stereo not drawn) | i | >57
N[C@H](C(=O)O)[C@H](N)C(=O)O | i | ·
Cc1ccc(S(=O)(=O)NC(CC(N)=O)C(=O)O)cc1 (stereo not drawn) | i | >57
COCCCN=CC1=C(O)CC(C)(C)CC1=O | i | >57
CCOc1ccccc1NC(=O)C1C2C=CC(O2)C1C(=O)O (stereo not drawn) | i | >57
CCOC(=O)c1c(CC(C)C)csc1NC(C)=O | i | >57
CC(CN1CCOCC1)OC(=O)c1ccccc1Br (stereo not drawn) | i | >57
C=C(C)Cn1c(SCC(=O)O)nnc1-c1ccc(C(C)(C)C)cc1 | i | ·
Cn1c(C(O)c2ccccc2F)nc(Cl)c1Cl (stereo not drawn) | i | >11
COc1cc2cc(C(c3nnnn3C3CCCC3)N3CCCCC3)c(=O)[nH]c2cc1OC (stereo not drawn) | i | >57
CC(=O)c1cccc(NC(=O)N2CCCC2C(=O)NCCC(C)C)c1 (stereo not drawn) | i | >57
N=C(N)SCCc1ccc(CCSC(=N)N)cc1 | i | ·
Cc1cc(Nc2ccc(F)cc2F)n2nc(C)nc2n1 | i | ·
COc1ccc(OC)c(S(=O)(=O)NCCC2=CCCCC2)c1 | i | >57
O=C(NCCN1C(=O)C2C3C=CC(C3)C2C1=O)N1CCOCC1 (stereo not drawn) | i | ·
CCN1CCCC1Cn1c(-c2ccccc2)nc2c(NCCOC)nc(C)nc21 (stereo not drawn) | i | ·
COC(=O)Nc1nnc(SCc2ccc(C)cc2)s1 | i | >57
NC(=O)c1c(NC(=O)CSc2nnc(-c3ccccc3)n2CC2CCCO2)sc2c1CCC2 (stereo not drawn) | i | >57
Nc1nc2c(s1)C(=O)CCC2 | i | >57
CC(=O)C(Sc1ccc2nnc(-c3ccc(C)cc3)n2n1)C(C)=O | i | ·
CCn1c(COc2cccc(OC)c2)nnc1SCC(=O)Nc1cccc(OC)c1 | i | >57
CC(C)N1C(=O)C2C(C(=O)NC3CCCCC3)C3C=CC2(O3)C1C(=O)NC1CCCC1 (stereo not drawn) | i | >57
O=C(O)CN(c1ccccc1)C1SC(=O)NC1=O (stereo not drawn) | · | >26
Cn1c(=O)[nH]c(=O)c2c1nc(N1CCOCC1)n2CCSc1ncccn1 | i | >57
COc1cccc(-n2nnc3c(=O)n(Cc4ccccc4Cl)cnc32)c1 | i | 6.9*
CCSc1nc(-c2ccc(OC)cc2)n(-c2nc3ccccc3s2)n1 | i | >57
Brc1ccc2c(c1)CNc1c(ncnc1N1CCOCC1)O2 | · | i
CSc1ccc(-c2nc(CSCC(=O)N3CCOCC3)c(C)o2)cc1 | i | ·
CCC(CC)C(=O)NCc1ccccc1OC | i | ·
Cc1cnc(C(=O)Nc2nnc(C(C)C)s2)cn1 | i | >57

(list continues)
smiles | TsaE inh | PK Bst
Cc1cccc(-n2ncc3c(NC4CCCCC4)ncnc32)c1 | i | ·
Cc1ccc2c(C)nc(Nc3ncc4c(n3)CCCC4=O)nc2c1 | i | >57
c1ccc2[nH]c(SCc3ccc(-c4nnco4)cc3)nc2c1 | i | ·
COc1ccc2c(=O)cc(-c3ccncc3)oc2c1OC | i | ·
CC1(C)CCCC2=C1CC1C(=O)N(Cc3cccnc3)C(=O)C1C2 (stereo not drawn) | i | ·
O=C(Cn1cccc1)NC1CCCCCC1 | i | >57
CC1(C)CCC(C)(C)c2cc(C(=O)Nc3ccc(C(=O)O)cc3)ccc21 | i | ·
Cc1cccc(C(=O)N(C)c2nnc(-c3ccncc3)s2)c1 | i | >57
Cc1nn(-c2ccccc2)c(C)c1C(=O)Nc1nnc(-c2ccco2)o1 | i | >57
CC1=C(C(=O)OC(C)C)C(c2cccc(F)c2)n2ncnc2N1 (stereo not drawn) | i | ·
c1cc(N2CCCC2)ccc1C(c1nnnn1C1CCCCC1)N1CCOCC1 (stereo not drawn) | i | >57
O=C(CCS(=O)(=O)c1cccs1)Nc1ccc(C(=O)NCc2cccs2)cc1 | i | >57
c1ccc2sc(NC3=NCN(Cc4ccc5c(c4)OCO5)CN3)nc2c1 | i | >57
CCC(C)NC(=O)C1CCCN(C(=O)Nc2ccc(F)cc2)C1 (stereo not drawn) | i | >57
CCc1nc(C)cn1S(=O)(=O)c1cc(C)c(OC)cc1C | i | ·
C(=N\n1cnnc1)/c1cccc2ccccc12 | i | >57
OCc1cn(-c2ccccc2)nc1-c1ccc2c(c1)OCCO2 | i | ·
c1ccc(CNc2nc3ccccc3n3cnnc23)nc1 | i | ·
O=C1CCc2cc(S(=O)(=O)N3CCCC3C(=O)N3CCN(c4ccccc4F)CC3)ccc2N1 (stereo not drawn) | i | ·
Cc1ccc(C)n1-c1ccc(N2CCOCC2)cc1 | i | ·
CCOc1cccc(=O)c2c(C)n(CC3CCCO3)c(C)c12 (stereo not drawn) | i | ·
Cc1ccc(OCc2nnc(SCC(=O)C(C)(C)C)n2Cc2ccco2)cc1 | i | >57
CCCCOc1ccc(S(=O)(=O)Nc2cccnc2)cc1 | i | >57
CSc1nnc2c(n1)OC(c1cccn1C)N(C(C)=O)c1ccccc1-2 (stereo not drawn) | i | >57
Cc1csc2nc(CNC(=O)C3CCCCC3)cn12 | i | ·
Cc1ccc(OS(=O)Nc2cccc3nccnc23)cc1 (stereo not drawn) | i | ·
COc1ccc(-c2nc(CS(=O)CC(=O)NCCC3=CCCCC3)c(C)o2)cc1 (stereo not drawn) | i | ·
Cn1nc(-c2ccc(Cl)cc2)c2cc(C(=O)NCc3ccco3)sc21 | i | ·
Cc1cc(F)c(F)c(C(=O)NC2CC2)c1Cl | i | ·
C/C(Cl)=C\Cn1c(Nc2ccc(C)cc2)nc2c1c(=O)n(C)c(=O)n2C | i | >57

3 structures from above, sorted by molar mass, rising:
smiles | TsaE inh | PK Bst
Cc1cc(F)c(F)c(C(=O)NC2CC2)c1Cl | i | ·
Cc1ccc(OS(=O)Nc2cccc3nccnc23)cc1 (stereo not drawn) | i | ·
O=C1CCc2cc(S(=O)(=O)N3CCCC3C(=O)N3CCN(c4ccccc4F)CC3)ccc2N1 (stereo not drawn) | i | ·

Exported as labelled records: part of the list above
> c1ccc2[nH]c(SCc3ccc(-c4nnco4)cc3)nc2c1
- TsaE inh: i
- PK Bst: ·
> COc1ccc2c(=O)cc(-c3ccncc3)oc2c1OC
- TsaE inh: i
- PK Bst: ·

The listing continues:
smiles | TsaE inh | PK Bst
CSc1nc2sc3c(c2c2nncn12)CCC3 | · | ?
O=C(Cn1c(=O)sc2ccccc21)Nc1ccc2c(c1)OCCO2 | i | >57
O=C(c1csc2ccccc12)n1cccn1 | i | >57
N#Cc1c(N)nc2c(c1-c1ccc3c(c1)OCO3)CCCCCC2 | i | >57
N#Cc1ccccc1NC(=O)CSc1nnc(-c2ccccc2O)n1-c1ccccc1 | i | >57
Cc1ccc(-n2ncc3c(=O)n(CC(=O)NC4CCCCC4)cnc32)cc1C | i | >57
COc1ccc2c(c1OC)C(=O)N1c3ccccc3COC21 (stereo not drawn) | i | ?
COC(=O)CSc1nnc(CNC(=O)c2ccc(S(=O)(=O)N3CCCCC3)cc2)n1C | i | >57
CC(C)Cc1nnc(NS(=O)(=O)c2ccc(Cl)cc2)s1 | i | ·
COc1cccc2c1NC(C(=O)O)C1CC=CC21 (stereo not drawn) | ? | ·
Cc1c(C(=O)NCCC2=CCCCC2)oc2ccc(S(=O)(=O)N3CCOCC3)cc12 | i | >57
Oc1cc(CN2COc3ccccc32)c(O)cc1CNC1CCCCC1 | i | ·
COCCCN1C(=O)C(=O)/C(=C(/O)c2ccccc2)C1c1ccc2c(c1)OCO2 (stereo not drawn) | i | >57
Cc1noc(NS(=O)(=O)c2ccc(NC(=O)C34CCC(CC3)C4)cc2)c1C | i | >57
CCOc1cccc(/C(O)=C2/C(=O)C(=O)N(CCOC)C2c2ccc(C)o2)c1 (stereo not drawn) | i | >57
Cc1nnc(SCC(=O)N2CCCCC2)s1 | i | >57
CCCCOc1ccc(-c2nnc(N)s2)cc1 | · | i
COc1ccc(CNc2nc3nc(C)c(Cl)c(=O)n3[nH]2)cc1OC | i | >57
CC(C)Cc1nccs1 | i | ·
CC1(C)Cc2c(C#N)c(N3CCOCC3)nc(-c3ccccc3)c2CO1 | · | >26
CN1CCN(c2ncc3nc(-c4cccc(C#N)c4)c(=O)n(CCC#N)c3n2)CC1 | i | ·
O=C(CN1CCN(c2ccccn2)CC1)N(c1ccccc1)c1ccc2ccccc2c1 | i | i
O=S(=O)(c1cccs1)N1CCN(Cc2ccccc2)CC1 | i | >57
COc1ccc(C2CC(c3ccc(Cl)cc3)Nc3nc(NC(=O)c4ccco4)nn32)cc1 (stereo not drawn) | i | >57
O=C(Nc1c2c(nn1-c1ccc(F)cc1)CSC2)c1ccc(S(=O)(=O)N2CCOCC2)cc1 | i | >57
O=C(NC12CC3CC(CC(C3)C1)C2)c1cnccn1 | i | >57
O=CN1CCN(C(=O)c2ccccc2F)CC1 | i | ·
CCc1nc2n[nH]c(N)c2c2c1CCCC2 | · | >26
Cc1nn(C)c(C)c1S(=O)(=O)N(CC(=O)Nc1ccccn1)c1ccc(C(C)C)cc1 | i | ·
CCC(=O)c1ccc(N2CCCCCC2)c(F)c1 | i | ·

Taken from above.
CCOc1cccc(/C(O)=C2/C(=O)C(=O)N(CCOC)C2c2ccc(C)o2)c1 (stereo not drawn) in PK Bst has >57
Cc1nnc(SCC(=O)N2CCCCC2)s1 in PK Bst has >57
O=C(c1csc2ccccc12)n1cccn1 in PK Bst has >57
CC(C)N1C(=O)C2C(C(=O)NC3CCCCC3)C3C=CC2(O3)C1C(=O)NC1CCCC1 (stereo not drawn) in PK Bst has >57

Further entries.
smiles | TsaE inh | PK Bst
Cc1noc(-c2ccccc2OC(=O)c2ccccc2)n1 | i | ·
O=C(NCc1cccnc1)c1cnn2ccccc12 | i | ·
COc1ccc(-c2nc(-c3cccc(C)c3)no2)cc1OC | i | >57
c1ccc(-n2ncc3c(NCc4ccc5c(c4)OCO5)ncnc32)cc1 | i | >57
Cc1onc(-c2ccccc2Cl)c1C(=O)NCc1ccc(S(N)(=O)=O)cc1 | i | ·
Cc1cc(C)nc(-n2nc(C)cc2NC(=O)CN2CCCC(C)C2)n1 (stereo not drawn) | i | >57
COc1cc(C(=O)O)cc(OC)c1OCc1cc(C(=O)O)oc1C | i | ·
c1ccc(OCCSc2ncnc3nc[nH]c23)cc1 | i | ·
CC1Oc2ccccc2N(Cc2cccnc2)C1=O (stereo not drawn) | i | >57
